Vaccinia mCherry: inhibitors of vaccinia virus infection (mCherry reporter signal) | Vaccinia virus mCherry reporter infection, fluorescence; about a quarter of the inactives have no number | Potency, µM (doses to about 36.5 µM), for the others: at the top dose activity change, negative = inhibition, actives largely listed as inhibitors | 310,000 compounds, 0.63% hits; active = well fitted inhibition curve with a large enough effect; inconclusive = small, poorly fitted or top-dose-only effect; inactive = no such curve, though single readings can be large or run the other way; tested in A549 cells; also: nearly all actives have a fitted effect of over 35% in size; inactives centre near -10
VACV Venus inh: inhibitors of vaccinia virus (Venus reporter). Vaccinia virus Venus reporter expression, fluorescence. Potency, µM (titrated, usually from 36.5 µM), without a hit: at the top dose activity change, negative = inhibition, actives largely listed as inhibitors. 330,000 compounds, 0.46% hits; active means well fitted inhibition curve with a large enough effect; inconclusive means small, poorly fitted or top-dose-only effect; inactive means no such curve, though single readings can be large or run the other way; tested in A549 cells; also: nearly all actives have a fitted effect of over 30% in size; inactives centre near -10
Numbers without * were called inactive; i = inactive; ? = inconclusive; nt = not tested or not shown; & = joins results of further samples; [ ] = another dose, or the depositor's remark. % is scaled to controls: 0 for no effect and ±100 for the full control effect; potency is read from the fitted curve at half-maximal effect.

Values in the order: Vaccinia mCherry | VACV Venus inh
O=C(CN1CCN(c2ccccc2F)CC1)NCc1ccccc1
→ -13% | -5%
Cc1cc(OCC(=O)Nc2c(C)n(C)n(-c3ccccc3)c2=O)ccc1[N+](=O)[O-]
→ -24% | -3%
Cc1ccc(C(C)C)c(OCC(O)CN2CC(C)OC(C)C2)c1 (configuration not stated)
→ ? | -26%
CCOC(=O)c1ccc(NC(=O)N2CCN(c3cccc(OC)c3)CC2)cc1
→ -13% | -12%
COC(=O)c1cccc(NC(=O)Nc2cc(C(=O)NCc3cccc(F)c3)ccc2N2CCCC2)c1
→ -25% | -21%
Cc1cccc(-n2cnc(C(=O)N/N=C\c3ccc(Br)cc3)c2)n1
→ nt | -30%
CCC1=C(OC(=O)N(CC)CC)N2C(=O)OC(=NCCc3c[nH]c4ccccc34)[C@]2(C)[C@H]2C1=CC[C@H]1C(=O)NC(=O)[C@H]12
→ -18% | ?
Cc1nc2cc(NC(=O)CS(=O)(=O)c3ccccc3)ccc2s1
→ i | -16%
CCN(CC)C(=O)c1sc(NC(=O)C(Sc2ccccc2)c2ccccc2)c(C(=O)OC(C)C)c1C (configuration not stated)
→ nt | ?
CCOc1ccc(CNCc2c(C(=O)O)c(C)n(Cc3cccc(OC)c3)c2C)cc1OC
→ 3% | 10%
Cc1noc(C)c1C(=O)Nc1nccs1
→ -10% | -18%
CCc1nc2c(cnn2-c2ccc(Cl)cc2)c(=O)n1-c1ccc2c(c1)OCCO2
→ -12% | -4%
CCOc1ccc(C(=O)Oc2cc(C)[nH]c(=O)c2[N+](=O)[O-])cc1
→ i | -1%
COc1cc(OC)c(NC(=O)C2=C(C)C(=O)OC23CCN(C(C)=O)CC3)cc1Cl
→ -3% | -2%
COc1ccc(CCCc2nnc(SCC(=O)Nc3ccc(C)c(C)c3)o2)cc1
→ -15%&-8% | -5%&-11%
CC1=C(C(=O)OCC2CCCCC2)C(c2cccc(Cl)c2Cl)CC(=O)N1 (configuration not stated)
→ 13% | 18%
CC(C(=O)Nc1nccs1)c1ccc([N+](=O)[O-])cc1 (configuration not stated)
→ i | 1%
Cc1c(C(=O)O)cnc2cc(-c3ccc(Cl)cc3)nn12
→ i | -17%
Cc1snc(SCc2c(F)cccc2Cl)c1C#N
→ i | -23%
CS(=O)(=O)N(CC(=O)Nc1ccccc1Cl)c1ccc(Cl)cc1
→ -11% | -8%

Profiles as entered above.
Entry for O=C(CN1CCN(c2ccccc2F)CC1)NCc1ccccc1 = Vaccinia mCherry: -13%; VACV Venus inh: -5%
Entry for CCOc1ccc(CNCc2c(C(=O)O)c(C)n(Cc3cccc(OC)c3)c2C)cc1OC = Vaccinia mCherry: 3%; VACV Venus inh: 10%
Entry for Cc1cccc(-n2cnc(C(=O)N/N=C\c3ccc(Br)cc3)c2)n1 = Vaccinia mCherry: nt; VACV Venus inh: -30%

The list goes on.
Values in the order: Vaccinia mCherry | VACV Venus inh
CCn1c(COc2ccc(=O)n(-c3ccccc3)n2)nnc1SCC(=O)OC
→ 4% | -6%
CCN1C(=NCCOC)N[C@@H](c2cccc(F)c2)C(C(=O)OC)=C1C
→ -13% | 2%
CCOC(=O)c1cnc2ccc(C(=O)OC)cc2c1Nc1ccc(OCc2ccccc2Cl)cc1
→ 1% | 0%
CC(C)C(=O)Nc1ccc(Br)cc1Cl
→ i | -7%
CCCCc1ccc(CC(=O)NO)cc1
→ 28% | -11%
O=C(Cc1cccs1)NCCS(=O)(=O)N1CCN(c2cccc(Cl)c2)CC1
→ -17% | ?
CCCCCCNc1nc(OC)nc(N2CC3CC(C2)c2cccc(=O)n2C3)n1 (configuration not stated)
→ -8% | -15%
CCOc1ccc(N2CC(C(=O)Nc3cccc(S(=O)(=O)N4CCOCC4)c3)CC2=O)cc1 (configuration not stated)
→ 1% | -12%
CC(=O)c1cc2c(=O)c3ccccc3oc2nc1C
→ -10% | -4%
Cc1ccc(Nc2nc(/N=C/N(C)C)n[nH]2)cc1C
→ i | -4%
Cc1c(/C(O)=C2\C(=O)C(=O)N(CCCN(C)C)C2c2ccccc2)cnn1-c1ccccc1 (configuration not stated)
→ i | -10%
CC1(C(=O)NS(=O)(=O)c2ccc(Cl)s2)CCN1C(=O)Cc1ccc(-c2ccccc2)cc1 (configuration not stated)
→ i | -5%
CC(C)Sc1nc2c(c(=O)n(C)c(=O)n2C)n1Cc1ccc(Cl)cc1
→ nt | -6%
O=C(/C=C/c1ccco1)Nc1ccccc1N1CCCC1
→ -7% | -5%
CCCC(CCC(=O)Nc1cc([N+](=O)[O-])ccc1O)C(=O)O (configuration not stated)
→ -8% | -15%
Cc1ccc(CSCC(=O)N/N=C/c2ccc(OCC(=O)Nc3ccc(C)cc3)cc2)cc1
→ -19% | -12%
COc1cc(CNc2ccccc2Oc2cc(=O)n(C)c(=O)n2C)cc(OC)c1OC
→ -6% | -17%
CCCNS(=O)(=O)c1ccc2c(c1)CCCN2C(C)=O
→ -3% | 0%
Cn1nc(C(=O)NNC(=O)CCc2ccccc2Cl)c2ccccc2c1=O
→ -19% | -11%
N#Cc1c(N)n(C2OC(CO)C(O)C2O)c2ncnc(N)c12 (configuration not stated)
→ ? | 1µM*

The last seven compounds of the section above lead into the next:
Values in the order: Vaccinia mCherry | VACV Venus inh
O=C(/C=C/c1ccco1)Nc1ccccc1N1CCCC1
→ -7% | -5%
CCCC(CCC(=O)Nc1cc([N+](=O)[O-])ccc1O)C(=O)O (configuration not stated)
→ -8% | -15%
Cc1ccc(CSCC(=O)N/N=C/c2ccc(OCC(=O)Nc3ccc(C)cc3)cc2)cc1
→ -19% | -12%
COc1cc(CNc2ccccc2Oc2cc(=O)n(C)c(=O)n2C)cc(OC)c1OC
→ -6% | -17%
CCCNS(=O)(=O)c1ccc2c(c1)CCCN2C(C)=O
→ -3% | 0%
Cn1nc(C(=O)NNC(=O)CCc2ccccc2Cl)c2ccccc2c1=O
→ -19% | -11%
N#Cc1c(N)n(C2OC(CO)C(O)C2O)c2ncnc(N)c12 (configuration not stated)
→ ? | 1µM*
CN(C)Cc1nc2ccccc2c(=O)n1Cc1nc(-c2cccc([N+](=O)[O-])c2)cs1
→ -11% | -15%
COc1ccc(N2CCN(S(=O)(=O)CCNC(=O)Cc3ccc(OC)c(OC)c3)CC2)cc1
→ -9% | -10%
O=S(=O)(Nc1nc2ccccc2nc1Cl)c1ccc2ccccc2c1
→ i | -10%
COc1cccc(C(C)(O)c2nc(-c3cccc(F)c3)cs2)c1 (configuration not stated)
→ ? | ?
Cc1cccc(NC(=O)c2ccc([N+](=O)[O-])o2)c1C
→ ? | ?
Cn1nc(-c2ccc(OCC(=O)Nc3ccc(Cl)cc3)cc2)c2ccccc2c1=O
→ -24%[7.34 µM] | -9%[7.34 µM]
COc1ccc(C(=O)Nc2ccc(C(=O)OCC(=O)c3ccccc3)cc2)cc1
→ 11% | 8%
O=C(COC(=O)c1cccnc1Cl)NC(=O)c1ccc(OC(F)F)cc1
→ -25% | -8%
CC(C)N1CCN(Cc2coc3ccccc3c2=O)CC1CCO (configuration not stated)
→ -22% | 8%
CSc1nnc(-c2ccco2)n1-c1ccccc1
→ nt | -7%
Cc1cc(C(=O)N2CCN(c3ncccn3)CC2)nn1C
→ i | 0%
CN(C)c1ncnc2[nH]ncc12
→ -9% | 2%
Cc1ccc(N2CC(C(=O)NC3CC3)CC2=O)cc1 (configuration not stated)
→ -5% | 5%
OC(c1ccc2c(c1)CN(Cc1ccc3nsnc3c1)CCO2)C1CCCCC1 (configuration not stated)
→ -10% | -2%
COc1c(Cl)cc(C(=O)N(Cc2ccccc2F)C2CCS(=O)(=O)C2)cc1Cl (configuration not stated)
→ -2% | -7%
Nc1cc(C(=O)OCC(=O)NC(c2ccccc2)c2ccccc2)ccc1Cl
→ i | -1%
CCOc1ccccc1C(=O)Nc1cc(-c2nc3cccnc3s2)ccc1C
→ 0% | -3%
Brc1ccc(-c2noc(-c3ccccn3)n2)o1
→ -13% | -7%
Cc1ccc2ccc3cccnc3c2n1
→ -21% | ?
CCC(=O)NC(=S)Nc1ccc(-c2nc3ccc(C)cc3s2)cc1
→ -7% | -10%

(list continues)
Values in the order: Vaccinia mCherry | VACV Venus inh
CCCCN(C)CCCNC(=O)CN1N=C(c2ccc(Cl)cc2)CCC1=O
→ i | -16%
O=c1cc(N2CCc3ccccc3C2)[nH]c(=O)n1C1CCCCC1
→ nt | -11%
CCC(=O)NC(Nc1nc2ccc(C)cc2s1)(C(=O)OC)C(F)(F)F (configuration not stated)
→ -7% | -14%
Cn1c(=O)c2[nH]c(NN=Cc3cccc(Br)c3)nc2n(C)c1=O
→ ? | -14%
CC(=O)OCC1OC(n2ccc3ccccc32)C(OC(C)=O)C(OC(C)=O)C1OC(C)=O (configuration not stated)
→ -10% | -5%
Cc1cc(Cc2cc(C)c(N)cc2C)c(C)cc1N
→ ? | 6%
O=C(N/N=C/c1cccc(Oc2ccccc2)c1)c1ccc(O)cc1O
→ ? | -17%
Cc1cc(C)n(C(=O)CCC2COc3ccccc3O2)n1 (configuration not stated)
→ nt | -28%
CC(=O)c1ccc(OC(C)c2nc3ccccc3s2)cc1 (configuration not stated)
→ -5% | -2%
CCN1C[C@@H]2[C@@H]3C(=O)N(C)C(=O)[C@@H]3[C@](Cc3ccccc3)(C1=O)N2C(=O)c1ccc(C)cc1
→ -17% | -24%
Cc1ccc(C(C(=O)NCC2CCCO2)N(C(=O)c2snc(C(N)=O)c2N)c2ccc(C(C)C)cc2)o1 (configuration not stated)
→ -7% | -16%
CCOCCn1c(C(C)O)nc2ccccc21 (configuration not stated)
→ nt | -12%
Cc1cc(C)cc(NC(=O)C2CCCN2S(=O)(=O)c2ccc3nc(-c4ccccc4)[nH]c3c2)c1 (configuration not stated)
→ -18% | -18%
Cn1ncc(Br)c1NC(=O)c1ccco1
→ -3% | 2%
Cc1ccc(NC2(C#N)CCCC2)cc1
→ -7% | -12%
Cc1nc(-c2cccc(S(=O)(=O)N3CCCCCC3)c2)cs1
→ nt | -24%
CSc1nc2ccc(NC(=O)c3cccs3)cc2s1
→ -24% | -30%
CSc1ccccc1OCc1cc(C(=O)N2C[C@H]3CC[C@H]2C3)no1
→ i | -9%
O=C(NCc1ccc(F)cc1)c1cc(-c2ccccn2)nc2ccc(S(=O)(=O)N3CCOCC3)cc12
→ -1% | -7%
O=C(c1ccc(Cl)cc1)C1CCCN(C(=O)/C=C/c2ccccn2)C1 (configuration not stated)
→ -3% | -11%

(listing goes on)
Values in the order: Vaccinia mCherry | VACV Venus inh
COc1c2ccccc2nc2ccccc12
→ 8% | 4%
CC1(C(=O)NCc2ccco2)Cc2c(-c3cccc(C(F)(F)F)c3)ccnc2O1 (configuration not stated)
→ ? | ?
O=C(NC1CCCCC1)C(=O)c1c(-c2ccccc2)[nH]c2ccccc12
→ -1% | -17%
CN(C1CCCCC1)S(=O)(=O)c1ccc2c(c1)CCC(=O)N2
→ -8% | -19%
CC(C)C(NC(=O)c1ccccc1NC(=O)c1ccco1)C(=O)O (configuration not stated)
→ i | -4%
CCc1ccccc1NC(=O)c1ccc(=O)n(Cc2ccc(F)cc2)c1
→ -1% | 13%
CCOC(=O)C1=CCN(S(=O)(=O)c2ccc(F)cc2)C1c1ccccc1 (configuration not stated)
→ 28% | 2%
COc1cccc(NC(=O)CCP(C)(=O)O)c1
→ -11% | -8%
COc1cc(OC)c(NC(=O)C(c2ccccc2)N2Cc3ccccc3C2=O)cc1Cl (configuration not stated)
→ -8% | -18%

In the list so far, 3 have a cyano group.
Values in the order: Vaccinia mCherry | VACV Venus inh
Cc1snc(SCc2c(F)cccc2Cl)c1C#N
→ i | -23%
N#Cc1c(N)n(C2OC(CO)C(O)C2O)c2ncnc(N)c12 (configuration not stated)
→ ? | 1µM*
Cc1ccc(NC2(C#N)CCCC2)cc1
→ -7% | -12%

Screens from PubChem BioAssay.
